ClpP mod – qHTS Assay for Activators of ClpP; ATP-dependent Clp protease proteolytic subunit (Bacillus subtilis (strain 168)), P80244; purified B. subtilis ClpP, FRET peptide cleavage, 20 min; Potency, µM (doses to about 57.5 µM), for the others: at the highest dose activity change, negative = active; 340,000 tested, 1.9% active; AID 651965, 2013; active = well fitted falling curve with a large enough effect; inconclusive = small, poorly fitted or top-dose-only effect; inactive = no such curve, though single readings can be large or run the other way; further: potency means the concentration at half of the fitted maximal effect; the source files actives as falling curves though it sought activators and does not explain the sign; nearly all actives have a fitted effect of over 65% in size; many hits overshoot -100%
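FRET quenching reversal measured ClpP activation: 10 microg/mL B. subtilis ClpP at pH 8 with the FRET-FV decapeptide, read at 430 nm after 320 nm excitation. The 20-min minus 0-min signal was scaled between DMSO/no-enzyme wells and ADEP (5.8 microM final).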
Sfp PPTase inh – qHTS Assay for Inhibitors of Bacillus subtilis Sfp phosphopantetheinyl transferase (PPTase). 4'-phosphopantetheinyl transferase ffp (Bacillus subtilis), Q9F4F7. Biochemical Sfp PPTase activity, qHTS. Potency, µM, without a hit: max response, negative = inhibition, hits mostly inhibitors. 310,000 tested, 3.5% active; active means well fitted inhibition curve with a large enough effect; inconclusive means small, poorly fitted or top-dose-only effect, or another doubt; inactive means no such curve, though single readings can be large or run the other way;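 further: the enzyme is Sfp with the accession as filed and its product quenches rhodamine fluorescence; potency means the concentration at half of the fitted maximal effect; 0% = enzyme reaction without inhibitor and -100% = no enzyme wells; top concentration of the series not given in the record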
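Fluorescence-quenching assay with 15 nM Sfp, 5 uM rhodamine-CoA and 12.5 uM BHQ-2-labelled ybbR peptide in pH 7.6 Hepes/MgCl2 buffer. Enzyme was pre-incubated with compound for 15 min at room temperature. Rate was taken from the 30-min fluorescence change (525/598 nm).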
gsp antagonist – qHTS for Antagonists of gsp, the Etiologic Mutation Responsible for Fibrous Dysplasia/McCune-Albright Syndrome: qHTS; gsp-mutant cells, cAMP HTRF, 30 min; control for the full effect not named in the record; Potency, µM (series often up to 76.9 µM), without a hit: top-dose activity change, negative = inhibition, usual class: inhibitors; 340,000 tested, 0.4% active; AID 624288, 2012; active = falling curve of any shape with a large fitted effect; inconclusive = falling curve, mostly with a smaller effect; inactive = flat or rising curve; cell line not stated here;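 further: intracellular cAMP measured with PDE inhibitor Ro 20-1724 present during compound exposure; potency means the concentration at half of the fitted maximal effect; on the % scale 0 is the no-effect control and ±100 the full control effect; nearly all actives have a fitted effect of over 65% in size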
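Cells, 2000/well, grown 16–24 h in DMEM 10% FBS with 0.5 mg/ml G418, then compounds plus […] (300 uM addition stock), 30 min at 37C. cAMP read by HTRF (cAMP-d2 and anti-cAMP antibody-K in lysis buffer) after 30 min RT.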
D2 potentiator – Beta-Arrestin HTS for Positive Allosteric Modulators of the Human D2 Dopamine Receptor: Potentiators | D(2) dopamine receptor (Homo sapiens), P14416 | DiscoveRx D2 beta-arrestin cells, luminescence, 90 min; 100% = 57 uM dopamine signal | potentiation, % (no concentration beside the values) | 360,000 tested, 0.23% active | AID 624464, 2012; active = potentiation of 50% or more; inconclusive = 30% to 50%; inactive = 30% or less;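 further: compound concentration not given in the record; tested on top of an EC20 dose of dopamine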
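PathHunter D2 cells, attached overnight at 37 deg C, received compound in DMSO plus dopamine at EC20 (50 nM final) for 90 min at 37 deg C. Beta-arrestin recruitment was read as luminescence after 1 h with detection reagent at ambient temperature.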
TRPV1 PAM – HTS Assay for Compounds that Act as Potentiators of the Vanilloid Receptor 1; 320,000 tested, 0.02% active; Transient receptor potential cation channel subfamily V member 1 (Homo sapiens), Q8NER1; potentiation, % at 8.33 µM; TRPV1-expressing cells, Fluo-8 calcium influx, capsaicin EC20 potentiation; host cell line not named in the record; control for the full effect not named in the record; active means potentiation above 80%; inconclusive means 30% to 80%; inactive means below 30%; further: 0% is about no effect
Target sequence (Q8NER1 whole entry, looked up): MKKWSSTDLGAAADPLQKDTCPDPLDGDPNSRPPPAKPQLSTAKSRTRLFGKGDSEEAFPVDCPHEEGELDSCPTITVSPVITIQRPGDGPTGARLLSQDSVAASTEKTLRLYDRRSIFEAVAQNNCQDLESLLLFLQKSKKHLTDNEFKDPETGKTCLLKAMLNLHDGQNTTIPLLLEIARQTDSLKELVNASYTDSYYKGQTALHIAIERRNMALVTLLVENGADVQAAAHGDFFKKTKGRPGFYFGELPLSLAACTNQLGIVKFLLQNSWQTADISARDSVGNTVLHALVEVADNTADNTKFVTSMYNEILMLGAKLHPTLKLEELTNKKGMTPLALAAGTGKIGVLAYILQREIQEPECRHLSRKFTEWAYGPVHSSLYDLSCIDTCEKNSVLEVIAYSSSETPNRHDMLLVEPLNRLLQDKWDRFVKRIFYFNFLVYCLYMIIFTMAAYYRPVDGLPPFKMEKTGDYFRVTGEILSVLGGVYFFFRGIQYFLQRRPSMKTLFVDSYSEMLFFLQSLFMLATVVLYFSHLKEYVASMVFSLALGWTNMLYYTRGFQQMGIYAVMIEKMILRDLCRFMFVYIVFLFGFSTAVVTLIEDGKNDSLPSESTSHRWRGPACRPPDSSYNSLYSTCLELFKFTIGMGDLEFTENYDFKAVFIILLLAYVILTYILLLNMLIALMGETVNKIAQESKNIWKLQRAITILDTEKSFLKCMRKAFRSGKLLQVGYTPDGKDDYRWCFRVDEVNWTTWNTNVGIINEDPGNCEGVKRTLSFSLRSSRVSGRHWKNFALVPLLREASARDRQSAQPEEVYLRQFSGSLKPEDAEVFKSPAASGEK
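TRPV1-expressing cells were cultured overnight at 35.5C and loaded with Fluo-8 calcium dye for 40 to 90 min at room temperature. After a 10 s baseline, compound was added and calcium influx was read kinetically for 3 min (ex 480/em 520 nm).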
gsp agonist – qHTS for Agonist of gsp, the Etiologic Mutation Responsible for Fibrous Dysplasia/McCune-Albright Syndrome: qHTS; gsp mutant cells, cAMP HTRF, 30 min; control for the full effect not named in the record; Potency, µM (series often up to 76.9 µM), for the others: at the top dose activation (cAMP increase), most hits filed as activators; 340,000 tested, 0.13% active; active = well fitted activation curve with a large enough effect; inconclusive = small, poorly fitted or top-dose-only effect, or another doubt; inactive = no such curve, though single readings can be large or run the other way; cell line not stated here;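 further: phosphodiesterase inhibitor Ro 20-1724 added with compounds to block cAMP breakdown; potency means the concentration at half of the fitted maximal effect; nearly all actives have a fitted effect of over 60% in size; about a fifth of the inactives were tested at one dose only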
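Cells in DMEM/10% FBS with G418 were pretreated with compounds in DMSO plus […] (300 uM stock) for 30 min at 37C. cAMP was measured by HTRF (cAMP-d2 plus anti-cAMP antibody-K) after 30 min at room temperature.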
Menin-MLL FL inh – qHTS Assay for Inhibitors Targeting the Menin-MLL Interaction in MLL Related Leukemias: Competition With Fluorescein Labeled MLL-derived Peptide | 290,000 tested, under 10 active | Fluorescence polarization, fluorescein-MLL peptide displacement from menin | FP activity change, % at 61.4 µM; inconclusive = falling polarisation curve, or a change in total fluorescence; inactive = total fluorescence flat and polarisation flat or rising; no compound was filed as active; the % refers to the polarisation; negative = inhibition;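 further: % of control where 0% means no effect; inhibitors lower the polarisation; unlabelled MLL peptide was the positive control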
* = called active by the depositor; ? = inconclusive; . = not tested or not shown; & = joins results of further samples; [ ] = remark or other dose.

Each structure is followed by: TRPV1 PAM, gsp agonist, ClpP mod, Sfp PPTase inh, gsp antagonist, D2 potentiator, Menin-MLL FL inh
> CN1C(=O)NC(NC(=O)c2ccncc2)(C(F)(F)F)C1=O (stereo unspecified)
→ -3, 0%, -2.5%, -5%, -1%, -11, -0.1
> S=C(Nc1ccc(Oc2ccccc2)cc1)N1CCOCC1
→ -28, 7%[15.4 µM], -1.2%, -8%, 1%, -3, -4.0
> O=C(NCCc1ccccc1)N1CCCC(CNS(=O)(=O)Cc2ccccc2)C1 (stereo unspecified)
→ -9, 4%[15.4 µM], -4.2%, 10%, 4%, -1, -0.1
> CN(c1ccccc1C(=O)NCc1ccccc1Cl)S(=O)(=O)c1ccccc1
→ -2, -4%, 1.1%, 14%, 5%, -2, 5.3
> COc1ccccc1C(CCNCc1ccccc1)c1ccc(OC(C)C)cc1 (stereo unspecified)
→ -13, ?, -1.8%, -14%, 10%, -17, -7.0
> NC(=S)N/N=C/c1cc([N+](=O)[O-])ccc1OCCOc1ccccc1
→ 8, -1%, -1.6%, -11%, -2%, 17, 1.4
> CC1CCCC(C)N1/N=C/c1cccc(Br)c1 (stereo unspecified)
→ 1, -16%[15.4 µM], 0.6%, 8%, 16%, -5, 8.9
> Cc1ccc(OCC(=O)NCCCNC(=O)c2ccccn2)cc1C
→ 0, -15%, ., 6%, 2%, 1, -5.5
> COc1ccc(S(=O)(=O)N2CCOC23CCN(S(=O)(=O)c2cc(C)ccc2C)CC3)cc1
→ -7, ?, 0.9%, ., -3%, -20, .
> CN1CCN(c2ccc(CNS(=O)(=O)c3ccc(Cl)cc3)cc2)CC1
→ 3, 1%[15.4 µM], ., 10%, 16%, -11, 4.6
> COc1ccc(N=Cc2ccc(N(CCC#N)CCC#N)cc2)cc1
→ ., 4%, -0.3%, ., -3%, 1, .
> C[C@@H]1CCCCO[C@H](CN(C)C(=O)Nc2ccc3c(c2)OCO3)[C@H](C)CN([C@@H](C)CO)C(=O)c2cc(NS(=O)(=O)c3ccc(Cl)cc3)ccc2O1
→ ., 11%, -2.0%, ., ., -1, .
> O=C(C1CCC(=O)N1Cc1cccs1)N1CCOCC1 (stereo unspecified)
→ -2, 2%, -0.1%, 14%, 4%, -5, 1.3
> CC(C)C(NC(=O)CN(c1cccc(F)c1)S(C)(=O)=O)C(C)C
→ 6, 17%, -0.2%, 8%, 12%, 1, 0.1
> Cc1ccccc1[C@@H]1C(C#N)=C(N)S[C@H]1C(=O)c1ccccc1
→ 11, 1%, -1.5%, -3%, 18%, -4, 3.3
> COc1ccc(/C=C/C(=O)Nc2ccc(NC(C)=O)cc2)cc1S(=O)(=O)N1CCOCC1
→ -1, -1%, -3.6%, 9%, -1%, -6, 5.9
> O=C1CC2(CCN(C(=O)C3CC(=O)N(c4ccccc4)C3)CC2)Oc2ccccc21 (stereo unspecified)
→ 2, ?, 32µM*, ., -3%, -13, .
> O=C(NCCC1=CCCCC1)c1cc2ccccc2oc1=O
→ -12, 6%, -4.6%, 12%, 3%, -14, 1.4
> O=C(COC(=O)C1=COCCO1)NC1CCCCC1
→ ?, 23%, -1.9%, ., 10%, 29, .
> COC(=O)c1c(NC(=O)CCC(=O)O)sc2c1CCCCC2
→ 7, -2%, -9.6%, 0%, -11%, -18, 5.3
> CCc1nnc(NC(=O)CCN(c2cc(C)cc(C)c2)S(=O)(=O)c2ccc(Cl)cc2)s1
→ -4, -18%, -1.0%, 39%[activator], -7%, -2, -1.0
> CCc1nn(CC(=O)Nc2cc(C)ccc2C)c(=N)s1
→ 13, -1%[15.4 µM], -0.2%, 6%, 19%, -7, 3.5
> CSc1ccc(CN2CCCN(C)CC2)cc1
→ -15, -39%[inhibitor], 0.7%, -4%, 2%, -3, -1.4
> O=C(CCl)N1CCN2C(=O)c3ccccc3C12c1ccc(Cl)cc1 (stereo unspecified)
→ 1, -3%[15.4 µM], ., 19%, ., -5, 0.0
> CCn1c(CNC(=O)c2ccccc2F)cc2ccccc21
→ 3, 5%[15.4 µM], -3.4%, 15%, -20%, -13, -8.6
> CCN(CC)CCNC(=O)/C(=C/c1cn(C)c2ccccc12)NC(=O)c1ccc(OC)c(OC)c1
→ -2, 0%, ., 8%, -8%, -7, -0.4
> Clc1ccc(C2[C@H]3CN(CC4CCCCC4)[C@H](c4ccccc4)C34CC2(c2ccccc2)C4)cn1 (stereo partly specified)
→ ?, 0%, -0.7%, 24%&0%, 8%, -14, -4.7&2.4
> COc1ccc(-n2ncc3c(=O)n(CC(=O)N4CCCc5ccccc54)cnc32)cc1
→ 1, 1%, -13%, 17%, ?, -15, 0.7
> Cc1sc(NC(=O)CSc2nnnn2C2CCCCC2)c(C#N)c1C
→ 1, 6%[15.4 µM], 0.2%, 7%, -3%, -6, 10
> CCCS(=O)(=O)N1CCC(C(=O)NCc2cccnc2)CC1
→ -24, 3%, -10%, 14%, 3%, 24, 0.1
> CCN(CC(=O)Nc1ccc(NC(C)=O)cc1)C(=O)/C=C/c1c(C)nn(-c2ccc(F)cc2)c1C
→ -35, 11%[15.4 µM], -0.6%, 19%, -14%, -17, .
> Cc1nnc(SCC(=O)N(C(C)C)C(C)C)[nH]c1=O
→ -4, -4%[15.4 µM], ?, 2%, 1%, 0, 1.3
> COc1nc(N)c(S(=O)(=O)c2ccc(C)cc2)cc1C#N
→ -9, -39%, -29%, -5%, -9%, -2, 7.6
> CCOc1ccc(C(=O)NCc2ccccc2)cc1Br
→ -15, 10%, -0.8%, 5%, -7%, -12, 9.8
> O=C(O)c1cccc(Cn2c(Cl)c(/C=N/NC(=O)c3cc4ccccc4cc3O)sc2=O)c1
→ ., 19%, -0.1%, ?, -10%, -10, 37[activator]
> CC1=NN(c2ccccc2)C(=O)C1/C=C1\NC(=S)NC1=O (stereo unspecified)
→ -11, 19%[15.4 µM], ., -3%, -49%, -12, ?
> C[C@H]1COC(=O)[C@@H](Cc2ccc(F)cc2)C/C=C\C[C@H](CC(=O)N(CCO)Cc2ccccc2)C(=O)N1
→ ., -5%, 0.8%, ., 3%, -2, .
> COc1ccc(N(C(C)C(=O)NC2CCCCCC2)S(C)(=O)=O)cc1 (stereo unspecified)
→ -6, 4%, 0.2%, 28%, 4%, -6, -0.3
> C=CCN(c1ccccc1)S(=O)(=O)c1cc(C(=O)NC2=NCCS2)ccc1Cl
→ 1, 8%, -1.8%, -9%, -11%, -12, -3.4
> CCC(C(=O)OCC(=O)Nc1cc(Cl)cc(Cl)c1)c1ccccc1 (stereo unspecified)
→ 2, -27%, -2.5%, 27%, -3%, 0, 1.6
> O=C(/C=C/c1ccccc1)CCN1CCOCC1
→ ., -25%, -1.8%, ., 14%, -18, .
> Cc1nc(-c2ccc(S(=O)(=O)Nc3ccc(Br)cc3F)cc2)co1
→ 15, ?, -2.0%, 19%, -16%, -10, -4.5
> Clc1ccc(-c2n[nH]c3c2Cc2ccccc2-3)cc1Cl
→ -11, ., ., 29%, ., ., -2.2
> COC(=O)c1cnc(N2CCCN(S(=O)(=O)c3ccc(C(F)(F)F)cc3)CC2)nc1C(F)(F)F
→ 2, 14%, 3.7%, 11%, -21%, -3, 1.1
> CCN(CCNC(=O)C1CCN(Cc2nc(-c3ccc(Cl)cc3)oc2C)CC1)c1ccccc1
→ 11, 1%, 2.6%, ?, 1%, -35, 0.0
> CCCCS(=O)(=O)/C=C\C1C2C=CC(C2)C1S(=O)(=O)CCCC (stereo unspecified)
→ -12, ?, -1.5%, 14%, -4%, -18, -0.5
> Cc1nc2ccccc2c(=O)n1/N=C/c1c(O)ccc2oc3c(c12)CCCC3
→ 12, -21%, -3.8%, 22µM*, -2%, -7, ?
> CCCn1c(N)c(C(=O)CSc2nncs2)c(=O)[nH]c1=O
→ -4, 2%, -0.5%, ., 2%, 17, .
> CC(=O)Nc1ccc(S(=O)(=O)NC(C(=O)O)C2=CCC=CC2)cc1 (stereo unspecified)
→ 5, -53%[inhibitor], -1.7%, 6%, 6%, 16, 0.7

From PubChem
